# Assay outcomes: PubChem, Broad Institute
# T cruzi repl: T. cruzi replication inhibition. T. cruzi beta-gal in NIH3T3, luminescence, 90 h. inhibition, % (no concentration beside the values). 1.4% of 300,000 active;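 active = mean inhibition across valid replicates above about 55%, limit read from the data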;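 note: signal also drops with host cell toxicity which is not excluded here; 0% = plate median of DMSO wells and 100% = zero luminescence signal; higher percent means less beta-gal luminescence so fewer parasites; stock transfer was 50 nL into about 50 µL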
# Beta apoptosis: blocks beta cell apoptosis. 0.8% of 300,000 active. INS-1E cytokine-induced death, ATP luminescence, 48 h; percent of positive-control rescue, neutral wells zero. protection from apoptosis, % (test concentration not listed). AID 435005;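 active = all replicates at 75% or more, or half of them and the mean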;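 note: 0% = cytokine-treated negative control wells and 100% = positive control rescue; higher means more ATP so stronger rescue from cytokine killing; wells of about 40 µL received 100 nL stock; the first replicate is given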
# Bfl-1 A1 inh: inhibitors of the anti-apoptotic protein A1, read as caspase activation | MEF A1-2A-BIM cells, Caspase-Glo 3/7 luminescence, 3 h; percent of clofoctol response, vehicle zero | caspase activation, % (test concentration not listed) | 0.066% of 330,000 active;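 active = over half of replicate activation scores above 10%, or exactly half above 10 with the replicate mean above 10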;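 note: wells of about 30 µL received 50 nL stock; many hits fall short of the cut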
# Numbers without * were called inactive. A portion of the library (hit frequency here may not be typical).
SMILES,T cruzi repl,Beta apoptosis,Bfl-1 A1 inh
CCOc1cc(/C=N/NC(=O)c2cccc([N+](=O)[O-])c2)ccc1OS(=O)(=O)c1ccccc1,9,-4,-1.8
O=C1C2C3C=CC(C4CC34)C2C(=O)N1CCc1ccccc1 (centres undefined),-3,3,0.4
CCCCCCCCC(=O)N/N=C(\C)c1ccc(O)cc1O,-28,37,0.0
COc1cc(/C=N/n2cnnc2)ccc1OC(=O)c1cccnc1,2,-1,-0.3
Nc1nnnn1/N=C\c1ccc(Cl)c([N+](=O)[O-])c1,-11,-2,-0.2
CC(=O)c1ccc(N/N=C(/C(N)=O)C2=NC(C)(C)Cc3ccccc32)cc1,6,4,-0.3
Nc1c(C(=O)Nn2cnnc2)cc([N+](=O)[O-])cc1[N+](=O)[O-],-15,-5,0.1
C/C(CCc1ccc2c(c1)OCO2)=N\N=C(/N)SC1CC(=O)N(c2ccc(Cl)cc2)C1=O (centres undefined),13,-5,0.5
O=C(CNC(=O)c1ccc(Br)cc1)N/N=C/c1ccc[nH]1,14,-2,-0.4
Cc1ccc(NC(=O)CCC(=O)N/N=C/c2cc([N+](=O)[O-])ccc2O)cc1,-7,6,0.4
O=C(COc1ccccc1)Nc1ccccc1Oc1ccccc1,18,-6,0.2
Cc1ccsc1/C=N/n1c(-c2ccncc2)n[nH]c1=S,6,7,-0.2
Cc1ccc(/C=N/NC(=O)Cn2nccc2C)o1,-4,-9,1.1
CC/C(Cc1ccccc1)=N\NC(=O)c1cc(C)oc1C,-1,1,1.0
CN=c1scc(C)n1/N=C/c1ccc(O)c(O)c1O,11,-5,-4.5
O=Cc1ccc(OC(=O)Cc2ccc(F)cc2)cc1,-13,6,0.1
COCCN1C(=S)N[C@@H](c2cccc(F)c2)C(C(=O)OC)=C1C,0,-9,0.6
COc1cc(/C=N/N=C(/N)c2nonc2N)cc(Br)c1OCc1ccccc1C,42,1,1.3
O=C(C/C=N/OCc1c(Cl)cccc1Cl)c1ccc(Cl)cc1,21,-5,0.5
COc1cc(/C=C2/NC(=O)N(Cc3ccccc3F)C2=O)ccc1Oc1ccc([N+](=O)[O-])cn1,17,3,0.0
O=C(N/N=C\c1cn(-c2ccccc2)nc1-c1ccccc1)c1ccc(Br)o1,21,110*,-1.8
CCOC(=O)Cc1cc(=O)[nH]c(/N=C(/NC(=O)c2ccccc2)Nc2ccccc2C(F)(F)F)n1,-24,-3,0.2
Cc1ccc(-c2[nH]ncc2/C=N/n2c(COc3ccccc3)nc3ccccc3c2=O)cc1,31,41,-0.2
CC(=O)OCCN1C(=O)c2cccc3cc([N+](=O)[O-])cc(c23)C1=O,73*,10,-1.9

# By substructure: the entries above with a halogen (ten)
SMILES,T cruzi repl,Beta apoptosis,Bfl-1 A1 inh
Nc1nnnn1/N=C\c1ccc(Cl)c([N+](=O)[O-])c1,-11,-2,-0.2
C/C(CCc1ccc2c(c1)OCO2)=N\N=C(/N)SC1CC(=O)N(c2ccc(Cl)cc2)C1=O (centres undefined),13,-5,0.5
O=C(CNC(=O)c1ccc(Br)cc1)N/N=C/c1ccc[nH]1,14,-2,-0.4
O=Cc1ccc(OC(=O)Cc2ccc(F)cc2)cc1,-13,6,0.1
COCCN1C(=S)N[C@@H](c2cccc(F)c2)C(C(=O)OC)=C1C,0,-9,0.6
COc1cc(/C=N/N=C(/N)c2nonc2N)cc(Br)c1OCc1ccccc1C,42,1,1.3
O=C(C/C=N/OCc1c(Cl)cccc1Cl)c1ccc(Cl)cc1,21,-5,0.5
COc1cc(/C=C2/NC(=O)N(Cc3ccccc3F)C2=O)ccc1Oc1ccc([N+](=O)[O-])cn1,17,3,0.0
O=C(N/N=C\c1cn(-c2ccccc2)nc1-c1ccccc1)c1ccc(Br)o1,21,110*,-1.8
CCOC(=O)Cc1cc(=O)[nH]c(/N=C(/NC(=O)c2ccccc2)Nc2ccccc2C(F)(F)F)n1,-24,-3,0.2

# (further entries)
SMILES,T cruzi repl,Beta apoptosis,Bfl-1 A1 inh
COc1ccc(/C=N/NC(=S)Nc2cc(S(=O)(=O)N3CCOCC3)ccc2N2CCOCC2)cc1O,3,8,0.5
Nc1nc(SCC(=O)Nc2ccc([N+](=O)[O-])cc2Br)n[nH]1,1,2,0.8
C/C(=N\NC(=O)C1CC1c1ccccc1)c1cccc([N+](=O)[O-])c1 (centres undefined),7,10,0.3
COc1ccc(/C=N/NC(=O)c2cc(C)on2)c2ccccc12,14,-3,-0.4
COc1cc(OC)cc(C(=O)Oc2ccc(/C=N/Nc3nc4ccccc4s3)cc2OC)c1,-38,5,-1.6
COC(=O)c1nc(NC(C)=O)n[nH]1,-13,1,1.0
C=CCn1c(Cn2nnc3ccccc32)nnc1SCC(=O)N/N=C/c1cc(Br)cc(OC)c1O,0,-3,0.3
Cc1ccc(-c2nc3s/c(=C\c4ccco4)c(=O)n3n2)cc1,0,-9,0.1
O/N=C1\CCCCc2ccccc21,-15,-10,-0.7
Cn1nc([N+](=O)[O-])nc1Sc1ccc(C(C)(C)C)cc1,27,-6,1.0
CCOc1cc(NC(=O)c2cnccn2)c(OCC)cc1NC(=O)c1cccc(F)c1,0,-8,-0.1
O=C(N/N=C/c1ccc(Br)s1)c1c[nH]c2ccccc12,11,9,0.0
CCC(C)NC(=O)c1c(N)n(/N=C/c2cccnc2)c2nc3ccccc3nc12 (centres undefined),26,15,0.2
CNc1nc2ccccc2n1/N=C/c1cccc(OC)c1OC,-15,1,-0.5
O=C(Nc1ccc(-c2nc3ccccc3[nH]2)cc1)c1cccc(N2C(=O)CCC2=O)c1,-39,1,-0.6
CC(C)c1ccc(/C=c2\sc3nc(-c4ccncc4)nn3c2=O)cc1,-18,-9,0.5
CCOc1cc(/C=N/NC(=O)c2cccnc2)ccc1OCC(=O)N1CCOCC1,6,-1,1.4
O=[N+]([O-])c1cc(-c2ccc(/C=N/c3nc4ccccn4c3-c3ccco3)o2)ccc1Cl,-1,0,-5.4
COc1ccc(NC(=O)c2ccc(Cl)c(NC(=O)c3ccncc3)c2)cc1,-10,-6,1.3
O=C(N/N=C/c1ccc(O)cc1)c1nc(-c2ccccc2)n(-c2ccccc2)n1,4,-2,-0.5
CCOC(=O)c1c(/N=C/c2ccc(O)cc2O)sc2c1CCC2,-21,0,0.4
COc1cc(/C=N/Nc2ccc(F)cc2F)cc(OC)c1O,15,-7,-0.2
O=S(=O)(c1cnccc1N1CCN(/N=C/c2ccc(Cl)cc2)CC1)N1CCCCC1,42,9,0.8
O/N=C1/CCSc2ccccc21,-19,1,-0.5
Cn1c(=O)c(C(=O)COC(=O)c2cc(-c3ccco3)nc3ccccc23)c(N)n(CC2CC2)c1=O,17,2,-0.9
COc1ccc(-c2csc(/C(C#N)=C\c3cccc([N+](=O)[O-])c3)n2)cc1,0,1,-0.9
Cc1cccc(COc2ccccc2/C=N/Nc2ccc([N+](=O)[O-])cc2)c1,27,2,-0.6
COc1cccc(/C=N/n2c(CO)nc3ccccc32)c1OC,-9,0,0.5
C/C(=N\NC(=O)C1CC1)c1cccc(NC(=O)c2cccc(Cl)c2)c1,-29,0,-1.6
CCCCCn1c(CN2CCN(c3cccc(Cl)c3)CC2)nc2c1c(=O)[nH]c(=O)n2C,47,11,-0.3
COc1ccc(/C=C/C(=O)NC(=S)NNC(=O)Cc2cccs2)cc1,15,50,0.1
CCOc1ccc(/C=N/N(C)c2ccccc2)cc1OC,-4,1,0.0
COc1ccc(CCNC(=O)C/C(C)=N/NC(=O)C23CC4CC(CC(C4)C2)C3)cc1OC,3,2,0.7
Cc1ccnc(NS(=O)(=O)c2ccc(N3C(=O)c4ccccc4C3=O)cc2)n1,-19,-4,0.8
COc1ccc(/C=N/n2c(SC)nnc(C(C)(C)C)c2=O)c(OC)c1,-3,-6,0.9
O=C(N/N=C/c1cn(-c2ccccc2)nc1-c1ccc(F)cc1)c1ccc(Br)o1,22,110*,-0.6

# 2 compounds drawn at random from the list so far, as already listed:
SMILES,T cruzi repl,Beta apoptosis,Bfl-1 A1 inh
Cc1cccc(COc2ccccc2/C=N/Nc2ccc([N+](=O)[O-])cc2)c1,27,2,-0.6
CCOC(=O)c1c(/N=C/c2ccc(O)cc2O)sc2c1CCC2,-21,0,0.4

# Next section
SMILES,T cruzi repl,Beta apoptosis,Bfl-1 A1 inh
O=C(COc1ccc(-c2ccccc2)cc1)N1CCN(S(=O)(=O)Cc2ccccc2)CC1,29,1,1.1
O=C(/C=N/O)NCc1ccncc1,-1,-2,-0.1
COc1ccccc1N1CCN(C(=O)c2ccc3c(c2)NC(=O)C(CSCc2ccccc2C)N3)CC1 (centres undefined),-2,-7,1.3
Cc1ccc(C)n1-c1cccc(N)c1,-11,-3,0.7
O=C(COc1ccc(Br)cc1)N/N=C1/SCC(=O)N1Cc1ccccc1,-5,-1,-1.7
Cc1ccc(CN(CC(=O)N/N=C/c2ccco2)S(=O)(=O)c2ccc(C)cc2)cc1,-3,-9,-0.1
O=C(NCCCN1CCCC1)Nc1cccc2ccccc12,5,-5,1.7
CCO/N=C(/C)c1c(O)cc(-c2ccccc2)n(-c2ccccc2)c1=O,-12,-1,0.1
O/N=C/c1ccc(OCc2ccccc2)c(Cl)c1,11,4,-6.4
C/C(=N\NC(=O)c1cccc(Cl)c1)c1cccc(NC(=O)C(C)C)c1,-4,0,-0.2
O=C(N/N=C/c1ccccn1)c1cc(C2CC2)nc2ccccc12,-6,9,-0.5
C(=C\c1ccco1)/C=N/n1cnnc1,7,-4,0.6
Cc1cc(NS(=O)(=O)c2ccc(Nc3nc(-c4sc(N)nc4C)cs3)cc2)no1,-12,3,-1.5
O=C(Oc1cccc(/C=N/Nc2nc(N3CCOCC3)nc(N3CCOCC3)n2)c1)c1ccco1,15,1,0.4
COc1cc(C(=O)Nc2nc(-c3ccc(Cl)cc3)c(C)s2)ccc1OCC(=O)Nc1ccc(F)cc1,34,12,-0.6
CCN=c1scc(C)n1/N=C/c1ccsc1,-10,3,-3.4
CCOc1ccc(-c2c(C(=O)N/N=C/c3ccc(OC(C)C)cc3)nnn2-c2nonc2N)cc1,-20,-11,-0.6
CCOc1ccc(C2C3=C(Nc4nc(N)[nH]c(=O)c42)c2ccccc2C3=O)cc1 (centres undefined),2,1,-1.4
CN(C)c1ccc(/C=N/NC(=O)Cn2nnc3ccccc32)cc1,-14,-4,1.5
COc1ccccc1Cc1nc2ccccc2n1S(=O)(=O)c1ccc(Cl)cc1,-33,1,-0.2
Cc1cccc(OCC(=O)N/N=C\C=C\c2ccc3c(c2)OCO3)c1C,-1,6,0.7
COc1cc(NC(=O)C2CC2)c(C(=O)O)cc1OC,4,-6,1.7
OCc1ccccc1N=c1ssnc1Cl,1,0,0.1
CCOC(=O)N/N=C/c1cn(CCCOc2ccc(C)cc2)c2ccccc12,-1,-1,-0.3
COc1cccc(/C=N/NC(=O)CCCc2ccc(OC)c(C)c2)c1,-3,1,-1.1
CCCS/C(N)=N/N=C/c1ccccc1O,-13,-5,0.0
O=C(NN1C(=O)C2C3C=CC(C3)C2C1=O)c1ccncc1 (centres undefined),-2,1,-0.9
C=CCN1C(=O)/C(=C/c2ccc(O)cc2)S/C1=N/c1nccs1,-18,0,-1.2
